RE007 growth inh: qHTS Assay for Inhibitors of the HIV-1 protein Vpr. S. pombe RE007 Vpr strain, BacTiter-Glo ATP luminescence, 24 h; control for the full effect not named in the record. Potency, µM (highest dose often 92.2 µM), for the others: at the highest dose activity change, negative = less growth. 360,000 compounds, 0.21% hits. AID 651644, 2012; active = well fitted falling curve with a large enough effect; inconclusive = small, poorly fitted or top-dose-only effect; inactive = no such curve, though single readings can be large or run the other way;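 note: % is set by controls: 0 for no effect and ±100 for the full control effect; nearly all actives have a fitted effect of over 50% in size; the assay follows cell death caused by Vpr and the record does not say whether a fall means rescue or toxicity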
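Fission yeast RE007 carrying one integrated HIV-1 vpr copy, seeded at OD 0.01 in PMG+AL medium with 23 nL pinned compound. Grown 24 h at 30 degrees; viability read by BacTiter-Glo luminescence after 5 min.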
SARS PLP yeast: qHTS of Yeast-based Assay for SARS-CoV PLP; S. cerevisiae expressing SARS-CoV PLpro, growth rescue; control for the full effect not named in the record; Potency, µM (titrated, usually from 32.9 µM), inactives show at the highest dose activity, positive = growth rescue; 330,000 compounds, 0.19% hits; note: 0% is about no effect; nearly all actives have a fitted effect of over 55% in size; growth read by luminescence after 48 h
2A StopGo: High Throughput Screening for Foot and Mouth Disease Virus Antivirals. 410,000 compounds, 1.2% hits. Potency, µM (doses to about 57.9 µM), inactives show top-dose signal change, negative = less light. human cells with a luciferase reporter of 2A StopGo recoding; control for the full effect not named in the record; active = well fitted falling curve with a large enough effect; inconclusive = small, poorly fitted or top-dose-only effect; inactive = no such curve, though single readings can be large or run the other way; tested in HEK293T cells; note: % is set by controls: 0 for no effect and ±100 for the full control effect; nearly all actives have a fitted effect of over 45% in size; luciferase light after 4 h
Marburg entry inh: qHTS for inhibitors of binding or entry into cells for Marburg Virus. Marburg virus pseudotyped entry inhibition, cell reporter; control for the full effect not named in the record; about a third of the inactives were read at about 46 µM. Potency, µM (highest dose often 37.8 µM), inactives show at the top dose activity change, negative = inhibition, most hits filed as inhibitors. 300,000 compounds, 1.8% hits. AID 540276, 2011; active = well fitted inhibition curve with a large enough effect; inconclusive = small, poorly fitted or top-dose-only effect, or effect the other way; inactive = flat fitted curve, though single readings scatter; tested in HEK293 cells; about a fifth of its hits are not listed in these tables; note: % is set by controls: 0 for no effect and ±100 for the full control effect; luciferase read-out
Cruzain inh Det: qHTS Assay for Promiscuous and Specific Inhibitors of Cruzain (with detergent) | 200,000 compounds, 0.43% hits | Cruzipain (Trypanosoma cruzi), P25779 | purified cruzain, Z-FR-AMC fluorescence, 0.01% Triton | Potency, µM, inactives show max response, negative = inhibition, usual class: inhibitors; active = well fitted curve in the direction sought with a large enough effect; inconclusive = small, poorly fitted or top-dose-only effect, or another doubt; inactive = no such curve, though single readings can be large; an effect the other way counts as inactive or inconclusive;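 note: plate controls were neutral wells for no effect and buffer without enzyme for full effect; nearly all actives have a fitted effect of over 40% in size; top concentration of the series not given in the record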
Target sequence (P25779 123-467 limits assumed): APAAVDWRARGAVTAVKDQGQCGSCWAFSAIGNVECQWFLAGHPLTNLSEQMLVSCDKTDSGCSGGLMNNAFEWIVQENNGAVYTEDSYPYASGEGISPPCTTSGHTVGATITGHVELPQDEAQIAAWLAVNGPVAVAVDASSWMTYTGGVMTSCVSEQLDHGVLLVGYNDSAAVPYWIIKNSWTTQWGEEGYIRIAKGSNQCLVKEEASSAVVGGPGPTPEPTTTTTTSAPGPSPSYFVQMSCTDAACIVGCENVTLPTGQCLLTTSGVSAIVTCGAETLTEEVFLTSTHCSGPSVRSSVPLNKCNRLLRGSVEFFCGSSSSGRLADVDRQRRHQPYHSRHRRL
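Sodium acetate buffer (100 mM, pH 5.5) containing 5 mM DTT and 0.01% Triton X-100 hosted 1.5 nM cruzain and test compound for 15 min at room temperature. Cleavage of 2 uM Z-FR-AMC was then tracked by fluorescence.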
Lassa entry inh: qHTS for Inhibitors of binding or entry into cells for Lassa Virus; Lassa virus pseudotype entry inhibition, cell reporter; control for the full effect not named in the record; Potency, µM (doses to about 37.9 µM), without a hit: at the highest dose activity change, negative = inhibition, usual class: inhibitors; 300,000 compounds, 1.2% hits; AID 540256, 2011; active means well fitted inhibition curve with a large enough effect; inconclusive means small, poorly fitted or top-dose-only effect, or effect the other way; inactive means flat fitted curve, though single readings scatter; tested in HEK293 cells; note: % is set by controls: 0 for no effect and ±100 for the full control effect; nearly all actives have a fitted effect of over 50% in size; luciferase read-out
NS1 function inh: qHTS Assay for Inhibitors of Influenza NS1 Protein Function; S. cerevisiae slowed by influenza A NS1, growth recovery by OD600; Potency, µM (doses to about 46.1 µM), without a hit: top-dose activity, positive = more growth; 270,000 compounds, 0.4% hits; AID 2326, 2010; note: actives are rising curves; nearly all actives have a fitted effect of over 50% in size
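S. cerevisiae expressing influenza A NS1, grown in glucose, washed, then diluted 1:100 into pH 6.0 -URA galactose medium with 23 nl compound. Growth recovery read as OD600; NS1-free strain serves as control.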
Cruzain inh noDet: qHTS Assay for Promiscuous and Specific Inhibitors of Cruzain (without detergent) | Cruzipain (Trypanosoma cruzi), P25779 | purified cruzain, Z-FR-AMC fluorescence, no detergent | Potency, µM, inactives show max response, negative = inhibition, actives largely listed as inhibitors | 200,000 compounds, 2.3% hits; active = well fitted curve in the direction sought with a large enough effect; inconclusive = small, poorly fitted or top-dose-only effect, or another doubt; inactive = no such curve, though single readings can be large; an effect the other way counts as inactive or inconclusive;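 note: plate controls were enzyme without inhibitor for no effect and buffer without enzyme for full effect; nearly all actives have a fitted effect of over 40% in size; top concentration of the series not given in the record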
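Purified cruzain at 1.5 nM, pre-incubated 15 min with compound at room temperature in 100 mM sodium acetate pH 5.5, 5 mM DTT, 0.00005% Triton X-100. Reaction started with 2 uM Z-FR-AMC; AMC fluorescence increase over 60 s gives rate.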
* hit, by the source's call; u = inconclusive; x = not tested or not shown; & = joins results of further samples; [ ] = another dose, or the depositor's remark. Unless noted, calls come from the whole dose curve; as a rule, active means well fitted rising curve with a large enough effect; inconclusive means small, poorly fitted or top-dose-only effect; inactive means no such curve, though single readings can be large or run the other way. Potency is the fitted concentration of half-maximal effect.

SMILES	RE007 growth inh	SARS PLP yeast	2A StopGo	Marburg entry inh	Cruzain inh Det	Lassa entry inh	NS1 function inh	Cruzain inh noDet
COc1ccc(NC(=O)/C(=C/c2cccs2)NC(=O)c2ccco2)cc1	7%	-1%	20%	17%[46.1 µM]	x	-14%	6%	x
CCCSc1nc(C)cc(C)c1S(=O)(=O)c1ccccc1C	27%	-14%	-14%	u	-6.5%	-13%	-21%	-5%
Cc1cc(C)c(C(=O)C2OC(=O)C(C)(C)C(=O)C2(C)C)c(C)c1 (configuration not stated)	-1%	-6%	-11%	0%[46.1 µM]	-7.8%	7%	-3%	1%
Cc1ccc(NC(=O)c2cccc(N3C(=O)C4C5C=CC(C5)C4C3=O)c2)cc1C (configuration not stated)	-10%	2%	0%	x	x	x	-4%	x
CC(=O)C1=C(c2ccccc2)NC(=O)NC1c1ccc(O)c(O)c1 (configuration not stated)	0%	1%	-12%	2%[46.1 µM]	x	6%	0%	x
COc1cc(OC)c2c(-c3cccc(-c4ccc(C(C)=O)cc4)c3)cc(=O)oc2c1	7%	-3%	-2%	x	3.5%	x	x	u
Cc1ccc(NS(=O)(=O)c2ccc(-c3cnc(C4CC4)o3)cc2)cc1	-3%	-17%	14%	x	x	x	-42%	x
Cc1cccc(N(C)S(=O)(=O)c2nnc(NC(=O)c3ccco3)s2)c1	-2%	1%	-5%	x	x	x	-20%	x
Cc1nc2ccc(S(=O)(=O)N(CC(=O)Nc3cccc(F)c3)Cc3ccccc3)cc2s1	x	x	-21%	x	-6.1%	-4%[46.1 µM]	x	-2%
CCOC(=O)c1[nH]c2ccccc2c1NC(=O)c1ccc(OC(C)C)cc1	x	x	-8%	-22%[46.1 µM]	-15%	u	x	18%
COc1cc(OC)cc(C(=O)N2CCN(c3ccc(N4CCOCC4)nn3)CC2)c1	-21%	1%	-13%	8%[46.1 µM]	x	7%	x	x
Cc1ccccc1Cn1c(=O)n(-c2ccc(Cl)cc2)c(=O)c2c3c(sc21)CCCC3	x	x	-12%	4%[46.1 µM]	-0.7%	1%[46.1 µM]	x	-9%
CSc1ccc(CCNC(=O)c2ccc3c(c2)nc2n3CCOC2)cc1	x	x	-17%	x	2.4%	u	x	1%
Cc1c(C)n(Cc2ccc(F)cc2)c2ccc(C(=O)NCc3ccco3)cc12	x	x	-3%	x	-4.0%	-5%[46.1 µM]	x	7%
COc1ccc(Cl)cc1NC(=O)Cn1nnc(C(=O)NCCc2ccc(OC)c(OC)c2)c1N	0%	15%	u	x	x	x	-2%	x
O=C(COc1ccc(F)cc1)Nc1cccc(OCc2cc(=O)n3ccccc3n2)c1	x	x	-27%	x	2.5%	17%[46.1 µM]	x	-10%
Cc1cc2nncn2c(Cc2ccccc2)n1	1%	6%	-14%	-6%&-6%	-0.4%	6%	-2%	4%
CCOC(=O)C1CCN(Cc2ccc(OC)c(C)c2OC)CC1	-3%	1%	7%	-45%	1.8%	-40%	6%	-4%
O=C(CSc1nc2ccccc2s1)CSc1nc2ccccc2s1	4%	-6%	x	-25%	-4.3%	6%	16%	-15%
O=C(NCCCn1ccnc1)c1ccc(Br)o1	7%	-1%	11%	-1%	1.4%	6%	4%	-11%
Clc1ccc(OCCOCCNCc2ccccc2)cc1Cl	3%	-5%	u	x	x	x	-28%	x
CCOC(=O)CS(=O)(=O)c1ccccc1	15%	6%	22%	20%	-2.0%	12%	-2%	-1%
Cc1ccc(NC(=O)CN(C)C(=O)c2nn(C)c(=O)c3ccccc23)cc1	-7%	1%	-24%	x	x	x	-5%	x
CCn1ccc2cc(S(=O)(=O)N3CCC(C(=O)NCCc4ccccc4)CC3)ccc21	x	x	-11%	x	-1.7%	-3%[46.1 µM]	x	2%
O=C(Nc1cccc(-c2cn3ccccc3n2)c1)C1CC1	9%	-3%	40%[activator]	1%	-0.2%	17%	-2%	-2%
CCCCCC(=O)N1CC2(CC(c3cccc(NC(=O)[C@@H]4CCC(=O)N4)c3)=NO2)C[C@@H]1C(N)=O (some centres not stated)	-2%	-2%	-5%	x	x	x	4%	x
CCC(C(=O)NC1CCCCCC1)n1nc(C)c2c(C)n(-c3ccccc3)nc2c1=O (configuration not stated)	-4%	0%	2%	u	x	18%[46.1 µM]	2%	x
CCCc1nc2oc3c(NCC(C)O)ncnc3c2c2c1CCCC2 (configuration not stated)	3%	-1%	-12%	x	x	x	-2%	x
CC(/C=C1\SC(=S)N(CCC(=O)Nc2ccc(O)cc2)C1=O)=C\c1ccccc1	-2%	-1%	0%	u	x	u	17%	x
CCn1c(=O)cc(OCC(=O)NCc2ccc(C)o2)c2ccccc21	-6%	2%	13%	-20%	3.2%	-1%	9%	-8%
CCN(CC)CCNC(=O)c1sc2ncccc2c1-n1cccc1	x	x	6%	x	-2.9%	15%[46.1 µM]	x	-12%
Cn1c(O)c(C(=Nc2ccccc2)SCc2ccc(Cl)cc2)c(=O)n(C)c1=O	-10%	-1%	-23%	x	x	x	-4%	x
O=[N+]([O-])c1ccc(N2CCCCC2)cc1NCCOc1ccccc1	-7%	15%	-6%	u	-5.4%	-2%	12%	-4%
CCCCc1nnc(NC(=O)c2ccccc2OCc2c(C)noc2C)s1	11%	14%	34%[activator]	-8%	x	-4%	x	x
Cc1ccc(C)c(OCc2cc(C(=O)NC(c3ccccn3)C(F)(F)F)no2)c1 (configuration not stated)	4%	x	-24%	u	x	-5%	x	x
CCOCC(=O)Nc1cc(S(=O)(=O)N2CCOCC2)ccc1N1CCCCC1	6%	-4%	-9%	-11%[46.1 µM]	x	-25%	x	x
COc1ccc(OS(=O)(=O)c2ccc(N3C(=O)CCC3=O)cc2)cc1	9%	-3%	u	4%[46.1 µM]	x	14%	10%	x
COc1cccc(N2C(=O)CC(N3CCc4ccccc4C3)C2=O)c1 (configuration not stated)	u	-17%	-4%	x	x	x	-131%	x
CC(C)NC(=O)Nc1n[nH]c(Nc2ccc(Cl)cc2)n1	-10%	0%	-6%	1%[46.1 µM]	x	8%[46.1 µM]	-1%	x
Cc1cc(NC(=O)Cc2ccsc2)ccc1Br	17%	-3%	0%	x	x	x	0%	x
O=C(Nc1cccc(S(=O)(=O)N2CCCCC2)c1)c1cc(=O)[nH]c2ccccc12	-13%	2%	-12%	-10%	x	19%	x	x
N#Cc1cccc(NC(=O)Cn2nc(Cc3ccncc3)c3ccccc3c2=O)c1	x	x	-13%	-20%[46.1 µM]	-4.8%	-20%[46.1 µM]	x	-19%
CC(C)CN(CC(C)C)C(=O)C12CCC(C)(C(=O)O1)C2(C)C (configuration not stated)	10%	19%	-18%	-28%	-2.7%	-3%	-3%	25%
O=[N+]([O-])c1cc(-c2nc(-c3ccccc3)no2)ccc1NC1CCCCC1	x	x	10%	0%[46.1 µM]	-3.5%	0%[46.1 µM]	x	-7%
COc1ccc(OCc2cc(C(=O)NC(C)Cc3ccccn3)no2)c(Cl)c1 (configuration not stated)	8%	-2%	0%	5%[46.1 µM]	x	u	-37%	x
CS(=O)(=O)c1ccccc1C(=O)N(CCc1ccccc1)Cc1ccccc1	13%	-2%	-9%	-17%	x	-2%	12%	x
c1cncc(-c2noc(CC3CCCCC3)n2)c1	8%	3%	46%[activator]	3%[46.1 µM]	-0.8%	4%	-7%	-1%
COc1cccc(C2CC(=O)Nc3c2c(=O)[nH]c2ncnn32)c1OC (configuration not stated)	x	x	-7%	2%[46.1 µM]	0.2%	-5%[46.1 µM]	x	12%
CC(=O)C1(O)C(C)CC2C3CCC4CC(O)CCC4(C)C3=CCC21C (configuration not stated)	8%	-13%	x	10%	-0.9%	2%	-2%	1%
Cc1cc(C)c2c(c1)NC(=O)C2(O)c1c[nH]c2ccccc12 (configuration not stated)	x	x	-20%	u	-2.6%	10%[46.1 µM]	x	-13%
CS(=O)(=O)N(Cc1ccccc1)c1ccc(C(=O)Nc2ccccc2Sc2ccccc2)cc1	0%	7%	-7%	0%	-2.0%	6%	9%	0%
CCCn1ncc(CN2CCN(Cc3ccc(C)o3)C(CCO)C2)c1C (configuration not stated)	-3%	-2%	-6%	u	x	1%	5%	x
O=C(Cn1c(=O)n(-c2ccccc2)c(=O)c2ccc(C(=O)NCc3ccc4c(c3)OCO4)cc21)Nc1ccc(Br)cc1F	x	x	-3%	-20%[46.1 µM]	-3.6%	0%[46.1 µM]	x	u
CC(=O)Nc1ccc(Nc2nnc(-c3ccc(C)c(S(N)(=O)=O)c3)c3ccccc23)cc1	11%	1%	28%&8%	u	-7.9%	5%	7%	0%
Cc1cc(C(=O)OCC(=O)c2ccc3c(c2)NC(=O)CO3)c2ccccc2n1	28%	4%	-20%	2%	-1.4%	-18%	6%	u
CC(OC(=O)c1cccnc1)C(=O)Nc1ccc2c(c1)OCO2 (configuration not stated)	7%	-1%	-4%	-14%	x	8%	x	x
Cc1c(C(=O)NC(C)C)sc2ncn(CC(=O)N3CCC(C)CC3)c(=O)c12	5%	-4%	4%	1%	2.6%	-3%	-4%	1%
O=C(Nc1cccc(F)c1)/C(=C\c1ccco1)NC(=O)c1ccco1	-9%	u	-11%	x	x	x	-2%	x
Cc1ccc(NS(=O)(=O)c2cc(C(=O)O)ccc2Cl)cc1	2%	-2%	52%[activator]	-26%[46.1 µM]	-1.1%	-8%	-7%	2%

An unsorted share of the library. About 4.5% of those tested had a hit in this group.
